Ab BasE inh = BasE siderophore enzyme inhibitors, primary screen, biochemical, Acinetobacter baumannii ATCC 17978, fluorescence polarization. inhibition, % (concentration not given with the values). actives 0.1% (n = 84,000). purified BasE, fluorescence polarization binding displacement;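 active = both replicates above 25% with normal brightness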;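 note: 0% = negative plate control signal and 100% = positive plate control signal; stock transfer was 100 nL into about 30 µL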
KSHV LANA nucl = inhibitors of KSHV LANA-nucleosome binding, primary screen, biochemical, fluorescence polarization, FITC-LANA1-23, chicken nucleosomes | FITC-LANA1-23 / chicken nucleosome fluorescence polarization; stronger effect = lower value | z-score (no concentration beside the values) | actives 0.3% (n = 51,000);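 active = both repeat wells score below -2 in polarization z-score versus plate sample wells, excluding overly bright wells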;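 note: 100 nL library stock added to about 30 µL; numbers are from one replicate; some results filed as inactive read as strong as hits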
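Assay system: purified chicken nucleosomes with FITC-labelled LANA N-terminal peptide (1-23) / Probe or stimulus: 50 nM FITC-LANA1-23 probe / Compound dosing: pin-transferred compound, 100 nL / Times: compound with peptide–nucleosome mix 10–45 min at room temperature / Technique: fluorescence polarization, 480 nm excitation, 535 nm parallel and perpendicular emission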
Starred values were filed as active, the others as inactive; . = no result given; & = joins results of further samples.

molecule	Ab BasE inh	KSHV LANA nucl
CCOC(=O)/C(C#N)=N/Nc1sc(C(=O)OCC)c(C)c1C(=O)OCC	2.7	0.073
CCC(=O)c1ccc(OCC(O)CN2CCOCC2)cc1 (stereo not given)	-0.9	0.53
CCOC(=O)Cn1cc(Cl)ccc1=O	-0.6	0.282
C(=N\OCc1cccc(CO/N=C/c2ccco2)c1)/c1ccco1	2.3	.
Cc1ccc(N2C(=O)CS/C2=C(/C#N)C(=O)NCC2CCCO2)cc1 (stereo not given)	2.3	.
CCc1c(C)c(C#N)c2nc3ccccc3n2c1NCCC(C)C	0.8	.
Cc1nnc(SCCn2c(Br)nc3c2c(=O)[nH]c(=O)n3C)s1	3.0	-0.635
CCC(C(=O)Nc1nc2nccc(C)n2n1)c1ccccc1 (stereo not given)	2.4	0.164
CCCCNS(=O)(=O)c1ccc2c(c1)nc(C1CCN(S(=O)(=O)c3cccs3)CC1)n2CCCC	3.0	.
COc1ccc2c(-c3cccnc3)cc(=O)[nH]c2c1	2.7	.
Cc1cccc(OCc2nnc(SCCN3C(=O)c4ccccc4C3=O)o2)c1	1.9	.
CCN(CC(=O)NCc1cccs1)C(=O)c1ccc(N2CCCC2=O)cc1	1.1	.
O=C1CCCCCN1Cc1nnc(SCN2C(=O)c3ccccc3C2=O)n1-c1ccccn1	-1.0	.
O=C(CCC(=O)N1CCOc2ccccc21)Nc1ccccc1Br	3.3	1.18
CC(C)(C)C(=O)NCc1ccc(C(=O)CSc2nnc(-c3cccs3)n2C2CC2)s1	0.8	.
CC1CCCN(CC(C)(C)N)C1 (stereo not given)	1.1	0.379
CCOC(=O)[C@H](CCc1ccccc1)N[C@@H](C)C(=O)N1C(C(=O)O)C[C@@H]2CCC[C@@H]21 (stereo not given in full)	-1.8	-0.566
CC(C)CCNC(=O)c1nnc(-c2ccccc2)o1	0.6	-0.573
CC(C)n1[nH]c(=O)c2c1NC(=O)CSC21CCCCC1	0.8	-1.14
COc1ccc(-c2nnc(SCC#N)o2)cc1	0.1	1.02
CCOC(=O)N1CCC(c2nnc(-c3ccc(Cl)cc3Cl)o2)CC1	-2.8	1.63
Cc1ccc(-c2csc3ncn(Cc4cc(=O)n5ccsc5n4)c(=O)c23)s1	1.3	.
COc1cc2c(cc1OC)CN(C(C)C(=O)NC(C)(C#N)C(C)C)CC2 (stereo not given)	-1.5	.
Cc1nc2ccc(-n3cccc3)cc2o1	.	-0.237
N#Cc1c(O)c(C=C2C=CC(=O)C=C2)n2ccccc12	1.1	.
Cc1cc(C)c(NC(=O)CSc2nncn3c2cc2occc23)c(C)c1	-4.9	1.71
NC1CCC(c2ccccc2)CC1 (stereo not given)	-1.3	0.126
Cc1ccc(/C=C/C(=O)O)cc1S(=O)(=O)N1CCC(C(=O)O)CC1	0.4	.
CC1=Nc2ccc(C)cc2/C1=C\c1c(N)n2nc(N3CCOCC3)sc2nc1=O	0.9	-0.0425
COCCn1c(SCC(=O)Nc2ccccc2)nc2ccccc21	1.9	.
O=C(NNc1ccccc1C(F)(F)F)C1CCCC1	3.6	.
CN(C)/C=c1\s/c(=C/C(=O)c2cccs2)[nH]c1=O	-34.0	.
N#CC(C#N)=C(C#N)c1cc2c([nH]1)CCCC2	-3.5	0.754
CNC(=O)COC(=O)c1ccc(NC(=O)CC#N)cc1	-1.7	.
C#CCSc1nc(C(OC)OC)cc(=O)[nH]1	-0.3	-0.054
CCN1C(=O)c2ccccc2S(=O)(=O)c2ccc(C(=O)NCCCN3CCCCCC3)cc21	-0.5	-0.571
Brc1cc(Br)c2nc(-c3nccs3)ccc2c1	.	-0.024
CCOC(=O)C1C(=O)OC2(CCCC2)C1C(=O)OCC (stereo not given)	-0.6	1.65
COC(=O)c1c(C)nsc1NC(=O)Oc1ccccc1	-2.8	.
CC(Sc1nncn1C)C(=O)NCCC1=CCCCC1 (stereo not given)	1.6	.
Cc1nn(-c2ccc(F)cc2)c(Cl)c1/C=C/C(=O)N1CCNC(=O)C1	1.7	.
O=C(c1ccc2c(c1)CCO2)N1CCN(C(c2ccccc2)c2ccccc2)CC1	2.5	.
CCNc1nc(NC(C)C)nc(OCCNC(=O)Nc2ccc(Cl)cc2)n1	-0.1	-1.32
COC(=O)C(F)c1nc2ccccc2c(=O)[nH]1 (stereo not given)	4.6	.
O=C1NN(c2ccc(Cl)c(Cl)c2)C(=O)/C1=C/C=C/c1ccco1	5.6	-0.662
COc1ccc(N2CC(NC(=O)N3CCCC3)CC2=O)cc1 (stereo not given)	0.9	-1.68
Cc1ccc(/C=N/N(C)S(=O)(=O)c2ccc(C)cc2)cc1	0.4	.
C=CCn1c(SCc2nnc(SCc3ccc(F)cc3)n2C)nnc1-c1ccccc1	0.0	.
CC1CN(c2ccc(NC(=S)NN)cc2)CC(C)O1 (stereo not given)	0.0	.
O=C(CN1CCN(c2ccccc2)CC1)NC(=O)Nc1ccc2c(c1)OCCO2	0.7	.

Sorted by value in KSHV LANA nucl (descending): some entries from above
compound | KSHV LANA nucl
O=C1NN(c2ccc(Cl)c(Cl)c2)C(=O)/C1=C/C=C/c1ccco1 | -0.662
CCNc1nc(NC(C)C)nc(OCCNC(=O)Nc2ccc(Cl)cc2)n1 | -1.32
COc1ccc(N2CC(NC(=O)N3CCCC3)CC2=O)cc1 (stereo not given) | -1.68

Next section
molecule	Ab BasE inh	KSHV LANA nucl
N=C1SC2CS(=O)(=O)CC2N1CCc1ccccc1 (stereo not given)	0.8	-0.428
Brc1ccc(-c2cc3n(n2)CCc2nc4ccccc4n2-3)cc1	1.6	.
O=C(Cc1c[nH]c2ccccc12)OCCOc1ccccc1	-1.4	.
CC(C)(C)c1cc(C(C)(C)C)c2oc(C(=O)O)cc(=O)c2c1	-0.9	.
CCn1cc(-c2n[nH]c(=S)n2C)c2ccccc21	1.1	-1.35
CS(=O)(=O)Cc1cccc(C(=O)N2CCc3ccccc32)c1	3.2	.
Nc1nc2cc3c(cc2s1)OCCO3	-3.4	1.97
C=CCNC(=S)N1CCN(C(c2ccccc2)c2ccccc2)CC1	0.1	.
CCCCCn1c(Sc2nc3ccccc3c(C)c2C#N)n[nH]c1=O	.	-0.364
O=S(=O)(c1cccc2cccnc12)N1CCN(Cc2ccc3c(c2)OCO3)CC1	-0.4	0.177

Further compounds.
Screens in order: Ab BasE inh | KSHV LANA nucl
CCN(/C=N/c1sc2c(c1C#N)CCCCC2)CC
 : -1.5 | .
Cc1ccc(S(=O)(=O)N2CCN(C(=O)CN3CCOCC3)C2C(C)C)cc1 (stereo not given)
 : 2.2 | -0.742
CC(C)C[C@@H](NC(=O)[C@H](Cc1ccccc1)NC(=O)c1cnccn1)B(O)O
 : . | -0.454
O=C(Nc1nc2c(s1)CCCC2)c1ccncc1
 : 5.8 | -0.187
CC(=O)Nc1ccc(Nc2ccccc2)cc1
 : -1.8 | 0.586
COC(=O)Cn1cncn1
 : . | -0.035
CC(C)(C)C1(O)CC(C(F)F)=NN1C(=O)c1ccccc1 (stereo not given)
 : 2.3 | 0.275
O=C1c2ccccc2C(O)(c2ccccc2)N1c1ccc2c(c1)OCCO2 (stereo not given)
 : 2.3 | -0.775
CCOc1ccc(N2C(=O)CC(Sc3nc(O)c(CC)c(=O)[nH]3)C2=O)cc1 (stereo not given)
 : 0.3 | -0.0635
CC(C)C(=O)NCc1n[nH]c(=O)c2ccccc12
 : 0.2 | 0.0665
COC(=O)CN1Cc2ccccc2C1=O
 : . | -0.0045
CCCc1cc(=O)[nH]c(SCC(=O)NC2CCCC2)n1
 : -0.5 | -0.096
CC1CCCC(C)N1C(=O)c1cc2sccc2n1Cc1ccc(F)cc1 (stereo not given)
 : -1.5 | 0.978
COC1=CC(=O)C[C@@H](C)[C@]12Oc1c(Cl)c(OC)cc(OC)c1C2=O
 : 1.7 | 1.22&-0.548
Nc1c(Cl)cnn(-c2ccccc2)c1=O
 : 1.6 | 0.0285
O=c1c(=O)n(-c2ccc3c(c2)OCO3)ccn1Cc1ccc(F)cc1Cl
 : 0.4 | -2.21
O=C(N/N=C/c1ccccc1)C(O)c1ccccc1 (stereo not given)
 : 3.7 | -0.098
COc1cccc(-n2cc(C(=O)N3CCC(C)CC3)c3ccccc3c2=O)c1
 : 1.6 | -0.532
C=CCSc1ncnc2c1sc1nc(N3CCOCC3)c3c(c12)CCCC3
 : -0.9 | .
CC(O)CNCc1ccc(-c2ccccc2)o1 (stereo not given)
 : -0.4 | -0.591
Cn1cc(NC(=O)Nc2ccc(S(=O)(=O)N3CCCCC3)cc2)c2ccccc2c1=O
 : -0.2 | -0.242
Cc1c(C(=O)N(C)Cc2ccccc2)sc2nc3n(c(=O)c12)CCCC3
 : -5.8 | 2.46
O=C(OCC(=O)c1cc2c3c(c1)CC(=O)N3CCC2)C1=COCCO1
 : 0.3 | .
COc1ccc(CCN(C)C2CCNCC2)cc1OC
 : -3.4 | -0.052
CS(=O)(=O)c1ccc2nc(NC(=O)C3CCCC3)sc2c1
 : -4.1 | .
CSc1ncnc2c1cnn2-c1ccccc1
 : 0.9 | 1.02
C=CCn1c(SCC(=O)Nc2cccc(OC)c2)nnc1C(C)NC(=O)c1ccccc1 (stereo not given)
 : 6.0 | -0.342
NC(=O)C1CCCN(C(=S)NCc2ccc3c(c2)OCO3)C1 (stereo not given)
 : 0.1 | .
O=c1oc(-c2ccco2)nc2ccccc12
 : -3.6 | 0.481
O=C(Nc1ccc(Cl)c(Cl)c1)OCc1ccco1
 : 0.9 | 1.45
CC(C)=C1N=C(c2cccs2)OC1=O
 : 0.6 | -0.392
CN(C)c1ccc(/C=C2\CCC(=C3CCCC3)C2=O)cc1
 : -6.5 | .
C=CCn1c(CC(=O)Nc2cccc(OC)c2)nnc1SCC(=O)NC1CCCCC1
 : -0.5 | 0.909
Cc1ccc(Cl)cc1N1CCN(C(=O)c2cc3c(=O)[nH]c4ccccc4c3n2C)CC1
 : -0.5 | -1.05
CN(C)Cn1c(O)c(N=NC(=O)c2ccccc2)c2ccccc21
 : 0.8 | -0.031
O=C(CCC(=O)c1ccc(F)cc1)c1ccc(F)cc1
 : 2.7 | .
O=C(N1CCCCC1)N1CCC(c2nc3ccccc3[nH]2)CC1
 : -0.5 | -0.197
COc1ccccc1/C=N/NC1=NCCCCC1
 : -1.2 | .
CCOC(=O)C1CC(O)CN1 (stereo not given)
 : 2.4 | -0.632
C=CCN(CC=C)C(=O)c1ccc(C)s1
 : 0.0 | 0.586
NNC(=O)c1ccc(CSc2n[nH]c(=O)[nH]c2=O)cc1
 : -0.1 | .
COC(=O)NC(=S)Nc1ccc(Oc2ccc(Cl)cc2Cl)cc1
 : 2.0 | .
O=C(Nc1ccccc1)c1ccccc1SCC(=O)N1CCCC1
 : 0.7 | .
COc1ccccc1NC(=O)Cc1nc(CSc2nc(C)cs2)cs1
 : 0.5 | .
CCn1cc(C(=O)O)c(=O)c2cc(F)c(N3CCNCC3)cc21
 : 0.2&2.4 | 0.0045&-0.335&-0.0185&0.959
CC(=O)Nc1sc(C)c(C)c1C(=O)OCC(=O)c1cc(C)n(-c2ccc3c(c2)OCCO3)c1C
 : 0.5 | .
CCn1c(SCc2ccc(Br)cc2)nnc1-c1ccncc1
 : 2.6 | .
Cc1onc(-c2ccccc2)c1C(=O)NCCSCc1ccco1
 : 0.9 | .
Cc1nc2ccccn2c1-c1ccnc(SCC(=O)c2ccc(Cl)cc2)n1
 : -0.6 | .
CN(C)CCN1CC(C(=O)O)CC1=O (stereo not given)
 : -2.4 | 2.92

Remaining list, next part.
Screens in order: Ab BasE inh | KSHV LANA nucl
CCn1ccc(C(=O)Nc2sc(C(=O)OC)c(C)c2C(=O)OC)n1
 : -0.3 | 0.238
Cc1c(C)n(C)c2ccc(C(=O)O)cc12
 : 1.3 | 0.286
Cc1ccc(C)c(N2CCN(c3ncnc4onc(-c5ccc(F)cc5)c34)CC2)c1
 : 0.3 | .
OC(c1nc2ccccc2[nH]1)C(O)C(O)C(O)c1nc2ccccc2[nH]1 (stereo not given)
 : 1.2 | .
O=C(Cn1[nH]c(=O)c2ccccc2c1=O)NCCCN1CCCC1=O
 : 0.8 | .
Cc1cc(=O)oc2cc(NC(=O)c3ccc(OC(F)F)cc3)ccc12
 : -0.5 | .
FC(F)(F)c1cc(-c2cn3ccccc3n2)cc(C(F)(F)F)c1
 : 1.2 | .
O=C(NCCCO)Nc1ccc2nc(-c3ccco3)c(-c3ccco3)nc2c1
 : 23.5 | -3.03*
NC(=O)NC(=O)C[n+]1ccc(/C=N/O)cc1
 : 1.3 | .
Cc1cn([C@H]2C[C@H](N=[N+]=[N-])[C@@H](CO)O2)c(=O)[nH]c1=O
 : -0.1 | 0.647&-0.791&-0.577

3 structures already listed, arranged by length of the SMILES, highest first.
Screens in order: Ab BasE inh | KSHV LANA nucl
CCOc1ccc(N2C(=O)CC(Sc3nc(O)c(CC)c(=O)[nH]3)C2=O)cc1 (stereo not given)
 : 0.3 | -0.0635
O=C(OCC(=O)c1cc2c3c(c1)CC(=O)N3CCC2)C1=COCCO1
 : 0.3 | .
Cc1nnc(SCCn2c(Br)nc3c2c(=O)[nH]c(=O)n3C)s1
 : 3.0 | -0.635

From PubChem BioAssay

Not all compounds are listed; the hit share may differ from the screen's.
